Screening data: PubChem BioAssay, several laboratories
LANA-H2A inh – blocks KSHV LANA binding to histone H2A/H2B; cell-free LANA-H2A/H2B peptide, fluorescence polarization; inhibition, % (concentration not given with the values); 0.6% of 320,000 active; AID 2629; in the data active means inhibition mostly above about 10%, no sharp cut-off; inactive means mostly below about 6.7%;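 further: stock transfer was 7.5 nL into about 10 µL; 0% = median of vehicle wells and 100% = median of positive control wells; one replicate is shown; the record names a cut of 25% in any replicate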
Ecoli growth – inhibitors of Escherichia coli growth. OD600, 23 h; active compounds read low. OD600 absorbance (no concentration beside the values). 0.21% of 330,000 active. AID 1053175;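 active means OD600 absorbance below the run mean of sample wells minus 3.6 SD, in any replicate, cut at about 0.56 in these data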;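 further: stock transfer was 300 nL into about 60 µL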
HNF4A DNA FP – change in binding of human HNF4 alpha to DNA. HNF4a-FITC DNA binding, fluorescence polarization, 1 h. activity change, % at 10 µM. 0.3% of 360,000 active. AID 1224865; in the data active means activity change above about 30%, passing the limit was not always enough;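 further: controls were the assay level and a saturating level of protein; the project sought stronger binding though the title names inhibitors; some compounds called inactive have numbers as strong as hits; positive values seem to mean higher polarization but the record does not say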
ALR H2O2 inh – human ALR oxidase inhibition via reduced H2O2; AID 485317; purified ALR, DTT oxidation, H2O2 HRP-luminol luminescence; 3.8% of 290,000 active; inhibition, % (test concentration not listed); P55789;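 active means mean and each replicate at 75% or more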;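 further: stock transfer was 7.5 nL into about 7.5 µL; 0% = neutral wells and 100% = wells with inactivated enzyme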
B2AR ag – human beta-2 adrenergic receptor agonism by FAP; 0.43% of 340,000 active; Am2.2-beta2AR cells, FAP receptor internalization, flow cytometry; reference of the scale not given here; P07550; response, % (test concentration not listed); AID 504454;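 active means response above a set limit, near 3 SD of response in nonfluorescent compounds, cut at about 42% in these data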;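 further: stock transfer was 100 nL into about 11 µL; a reference agonist was the positive control; negative values mostly stem from fluorescent compounds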
Target sequence (P07550 whole entry, looked up): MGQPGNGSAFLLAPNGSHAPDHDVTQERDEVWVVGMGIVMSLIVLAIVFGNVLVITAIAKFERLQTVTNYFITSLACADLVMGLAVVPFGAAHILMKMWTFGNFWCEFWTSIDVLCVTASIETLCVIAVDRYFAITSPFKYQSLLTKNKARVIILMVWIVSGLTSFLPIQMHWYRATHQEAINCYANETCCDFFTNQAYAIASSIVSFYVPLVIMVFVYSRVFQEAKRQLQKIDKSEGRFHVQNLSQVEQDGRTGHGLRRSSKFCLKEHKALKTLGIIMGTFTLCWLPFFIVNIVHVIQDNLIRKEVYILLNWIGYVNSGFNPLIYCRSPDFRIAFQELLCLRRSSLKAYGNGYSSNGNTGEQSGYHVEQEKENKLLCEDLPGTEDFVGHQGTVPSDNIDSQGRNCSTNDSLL
UCH37 inh – inhibitors of human deubiquitinating enzyme UCH37; Q9Y5K5; purified proteasome/UCH37, Ub-AMC cleavage fluorescence; inhibition, % (concentration not given with the values); 0.33% of 330,000 active; AID 588478;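 active means mean of two replicates above 20%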;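 further: 0% = compound-free wells with enzyme and 100% = wells lacking proteasome; stock transfer was 100 nL into about 20 µL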
Target sequence (Q9Y5K5 whole entry, looked up): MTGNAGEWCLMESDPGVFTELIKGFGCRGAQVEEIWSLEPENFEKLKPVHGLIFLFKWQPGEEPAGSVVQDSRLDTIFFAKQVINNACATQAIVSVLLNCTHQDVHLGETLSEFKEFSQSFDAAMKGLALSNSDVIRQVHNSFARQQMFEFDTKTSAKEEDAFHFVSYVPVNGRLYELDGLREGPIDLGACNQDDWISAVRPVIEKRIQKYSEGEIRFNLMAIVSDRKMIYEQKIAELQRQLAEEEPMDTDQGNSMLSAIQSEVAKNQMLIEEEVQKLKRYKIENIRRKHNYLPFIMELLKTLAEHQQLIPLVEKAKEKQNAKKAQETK
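system = Proteasome-associated human UCH37 deubiquitinase | amount = 0.15 nM proteasome as dispensed | medium = pH 7.4 Tris-HCl (50 mM) with ovalbumin, ATP-MgCl2, DTT | incubation = 30 min preincubation with enzyme, 25 min cleavage at room temperature | detection = AMC fluorescence 355/460 nm | read-out basis = percent inhibition | controls = no-proteasome and no-compound wells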
FGF22 binding – binders of recombinant human FGF22 by thermal shift; SYPRO orange fluorescence; percent of sucrose octasulfate shift, DMSO zero; calls only at 9.99 µM; 1.5% of 340,000 active; AID 651658;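 active means melting point raised past a set limit in the mean and every replicate; three in four hits are not shown here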
Target sequence (Q9HCT0 whole entry, looked up): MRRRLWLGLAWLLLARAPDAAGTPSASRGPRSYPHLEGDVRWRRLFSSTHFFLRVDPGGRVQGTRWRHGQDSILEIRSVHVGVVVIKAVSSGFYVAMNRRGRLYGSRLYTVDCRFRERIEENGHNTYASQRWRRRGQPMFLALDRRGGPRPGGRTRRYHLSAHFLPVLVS
* = called active by the depositor; i = inactive; x = no result given.

#	B2AR ag	HNF4A DNA FP	UCH37 inh	ALR H2O2 inh	FGF22 binding	canonical_smiles	LANA-H2A inh	Ecoli growth
1	-2.3	9.3	3.8	x	i	COc1ccc(CCC(=O)OCC(=O)c2ccc[nH]2)cc1OC	-5.3	0.686
2	-1.0	2.2	3.0	-12.1	i	COc1ccc2nc(SC(C(=O)c3ccccc3)c3ccccc3)nc(C)c2c1 (centres undefined)	0.0	0.744
3	-2.2	0.7	0.6	-21.5	x	CC12CN3CC(=O)N4CC5(C)CN(CC(C)(C4)C5=O)C(=O)CN(C1)CC(C)(C3)C2=O	-1.6	0.715
4	2.6	2.0	5.8	x	i	Cc1ccc(Cn2ncc(C)c2N)o1	-1.1	0.698
5	-4.2	-2.0	-0.2	x	i	CCOc1ccc(S(=O)(=O)Nc2cc(S(=O)(=O)N3CCOCC3)ccc2OC)cc1	0.2	0.666
6	-6.2	2.1	-2.1	4.6	i	C=CCc1c(OC(C)=O)c2ccccc2n(C)c1=O	5.2	0.673
7	1.5	0.4	2.5	3.0	i	CC(=O)N1CCCN(C(=O)c2ccc3nc(Cc4cccc(Cl)c4)oc3c2)CC1	3.8	0.716
8	2.3	1.1	4.5	-17.5	i	COc1ccc(NC(=O)c2cc(S(=O)(=O)Nc3ccc(OC)cc3)cs2)cc1	-6.6	0.629
9	-1.4	-0.9	4.3	-18.6	x	C=CCn1c(SCC(=O)c2cc(C)n(CC3CCCO3)c2C)nnc1-c1ccccc1 (centres undefined)	1.5	0.674
10	3.2	-1.5	3.4	x	x	Cc1ccc(/C=C/C(=O)c2cc(Br)ccc2OC(=O)c2ccco2)cc1	-2.8	0.718
11	-6.4	-0.2	2.4	9.1	i	Cc1cc(Cn2nnnc2-c2ccncc2)cc(C)c1O	-0.9	0.683
12	-2.2	2.2	5.6	-3.2	x	Cc1ccc(NC(=O)N2CCC(C(=O)NCc3ccc(F)cc3)CC2)cc1	3.1	0.69
13	0.6	1.5	-1.6	-3.1	x	COc1cc(OC)cc(-c2nc3ccccc3s2)c1	-2.9	0.695
14	-2.0	5.1	-0.1	-29.1	i	CC(C)[C@H](NC(=O)c1ccc(F)cc1)C(=O)OCC(=O)NC(=O)c1cccn1C	-5.3	0.625
15	7.9	-2.5	x	x	i	Cc1cccc(/C=N/NC(=O)C[n+]2ccccc2)c1	x	x
16	2.1	1.3	0.6	-6.5	i	Cc1c(Cl)cccc1NC(=O)CNC(=O)c1ccc(F)cc1	-3.7	0.684
17	2.1	-3.7	4.0	-9.0	x	COc1cc(S(=O)(=O)N2CCOCC2)ccc1NC(=O)COC(=O)CC12CC3CC(CC(C3)C1)C2	-4.8	0.739
18	5.8	2.1	2.7	-7.9	x	COC(=O)CCC(=O)Nc1sc2c(c1C#N)CCCC2	-1.7	0.74
19	6.6	-1.6	x	-8.9	i	Nc1cc(Cl)ccc1N1C(=O)CCC1=O	3.4	x
20	7.3	2.0	1.8	-2.0	x	O=C(O)c1ccc2c(c1)C(=O)N(NC(=O)c1ccccc1)C2=O	13.3	0.699
21	4.9	3.5	2.6	98.3*	x	Cc1cc(NC(=O)c2ccc(S(=O)(=O)Nc3ccccc3)cc2)no1	-2.9	0.685
22	-2.9	-4.2	-3.6	1.4	i	CCCCn1c(N)c(N(CCOC)C(=O)Cn2c(=O)oc3ccccc32)c(=O)[nH]c1=O	0.7	0.638
23	11.6	-9.5	-64.2	96.6*	x	CCCCCCc1c(C)c2ccc(OCC(=O)N[C@@H](Cc3ccccc3)C(=O)O)cc2oc1=O	-4.6	0.76
24	-7.0	-1.4	2.2	0.3	i	Cc1ccc(C(=O)OCC(=O)N2CCC(c3ccccc3)=N2)cc1	-0.1	0.717
25	-6.1	2.4	1.4	-2.7	i	CC(C)Cc1nnc(NC(=O)c2cc(S(=O)(=O)N(C)C)ccc2N2CCCC2)s1	1.5	0.698
26	-7.1	3.7	0.0	-16.2	x	COc1ccc(OC)c(NC(=O)CCC(=O)Nc2nnc(C(F)(F)F)s2)c1	2.8	0.764
27	6.4	-0.5	3.0	-14.6	x	Cn1ccnc1C1CCCCN1Cc1nc(-c2ccc3c(c2)OCO3)no1 (centres undefined)	1.7	0.695
28	2.9	-1.7	0.3	-19.4	i	CC(C)CC(=O)N1CCN(Cc2ccccc2[N+](=O)[O-])CC1	-3.7	0.671
29	-6.4	-5.3	1.4	7.0	x	O=C(c1cc2nc(C3CC3)cc(C(F)F)n2n1)N1CCOCC1	1.7	0.824
30	2.5	-3.1	0.9	-3.5	i	CN(CC(=O)N1CCCCCC1)S(=O)(=O)c1ccc(F)cc1	-4.6	0.678
31	-5.9	-0.5	2.9	-7.7	x	CCNC(=O)c1ccc(-n2nc(C(F)(F)F)c3c2CCCC3)cc1	2.2	0.727
32	-4.5	-0.5	-1.7	4.3	i	CC1(C)CC2CC(C)(CN2C(=S)Nc2ccccc2)C1 (centres undefined)	4.1	0.641
33	1.2	4.0	-0.6	x	i	O=[N+]([O-])c1ccc(-c2csc(N3CCCCCC3)n2)cc1	-7.2	0.708
34	3.9	1.1	2.6	-1.3	x	COc1ccc(C2CC(c3cccs3)=NN2S(=O)(=O)c2ccc(C)cc2)cc1 (centres undefined)	6.5	0.717
35	2.1	0.5	x	-6.8	x	CC/C(=N\NC(=O)c1ccncc1)C12CC3CC(CC(C3)C1)C2	3.3	x
36	-4.1	4.4	-14.4	-6.5	i	COc1ccc(NC(=O)c2cnc(SCC(=O)NCCc3ccccc3)n(C)c2=O)cc1	2.8	0.685
37	-16.1	-0.4	x	-2.4	i	O=C(N/N=C/c1ccc2c(c1)OCO2)c1cc(-c2ccccc2)nc2ccccc12	-2.8	x
38	-3.4	2.3	5.0	1.1	i	Cc1cccc(N2C(=O)CC(Cn3nc(C)cc3C)C2=O)c1 (centres undefined)	-0.4	0.705
39	1.0	-2.6	x	-16.6	x	Cc1cccc(C)c1NC(=O)COc1cccc(/C=N/NC(=O)C(=O)NCc2ccccc2)c1	-3.2	x
40	2.2	0.7	2.6	-4.2	i	C[C@H](CO)N1C[C@H](C)[C@@H](CN(C)S(=O)(=O)c2ccc(F)cc2)Oc2c(NC(=O)NC3CCCCC3)cccc2C1=O	0.6	0.742
41	4.5	0.9	2.5	38.5	i	Cc1cc2c(OCC(O)CN3CCCC3)cccc2[nH]1 (centres undefined)	-5.8	0.673
42	2.5	-2.4	-1.5	-29.8	x	CCNC(=O)c1sc(-c2ccccc2)nc1C	3.4	0.674
43	17.6	-2.4	3.7	98.7*	i	O=C(CSc1nc2ccc(Nc3nc(N4CCOCC4)nc(N4CCOCC4)n3)cc2s1)NCc1ccco1	2.7	0.708
44	-3.3	-3.3	3.6	x	i	O=C(O)c1nn(-c2ccc(F)cc2)ccc1=O	0.1	0.65
45	1.9	4.8	0.1	x	x	O=C1OC(Sc2ccccc2)(c2ccccc2)c2ccccc21 (centres undefined)	x	0.694
46	1.8	2.0	0.9	3.5	i	O=C(CNC(=O)C1CCCCC1)OCC(=O)c1ccc(Cl)s1	1.3	0.677
47	13.0	12.7	3.8	-0.9	i	COc1ccc(-c2ccc3sc4ccccc4c(=O)c3c2)cn1	0.8	0.652
48	0.5	0.1	12.3	65.1	i	Cn1cc(/C=C(\NC(=O)c2ccccc2Cl)C(=O)N2CCOCC2)c2ccccc21	-1.4	0.668

Complete entries as entered above. Screens in order: B2AR ag | HNF4A DNA FP | UCH37 inh | ALR H2O2 inh | FGF22 binding | LANA-H2A inh | Ecoli growth
O=C1OC(Sc2ccccc2)(c2ccccc2)c2ccccc21 (centres undefined) across the screens: 1.9 | 4.8 | 0.1 | x | x | x | 0.694
Cc1cc2c(OCC(O)CN3CCCC3)cccc2[nH]1 (centres undefined) across the screens: 4.5 | 0.9 | 2.5 | 38.5 | i | -5.8 | 0.673

Other entries follow:
#	B2AR ag	HNF4A DNA FP	UCH37 inh	ALR H2O2 inh	FGF22 binding	canonical_smiles	LANA-H2A inh	Ecoli growth
49	5.8	-3.4	-0.1	0.0	i	O=[N+]([O-])c1ccccc1S(=O)(=O)N1CCCC(C(F)(F)F)C1 (centres undefined)	5.7	0.614
50	12.8	1.2	3.3	2.8	i	O=C(Nc1ccc(-c2cn3c(n2)SCC3)cc1)c1ccc2ccccc2n1	-1.3	0.667
51	-2.6	-3.8	3.2	-4.2	i	CC(=O)N1CCOc2ccc(S(=O)(=O)N3CCC(C(=O)Nc4ccc(F)cc4)CC3)cc21	-5.2	0.667
52	-11.7	1.4	-0.1	0.4	x	O=C1N/C(=N/c2ccccn2)SC1Cc1ccccc1 (centres undefined)	4.7	0.679
53	0.6	1.1	3.5	-0.8	i	NS(=O)(=O)c1ccc(NC(=O)Cc2cccs2)cc1	5.1	0.658
54	-3.4	4.8	-0.5	x	i	Cc1cc(O)ccc1NC(=S)NC(=O)c1cncc(Br)c1	5.0	0.685
55	-1.5	3.2	0.9	x	i	COc1ccc(CC(=O)Nc2nc(C)cs2)cc1S(=O)(=O)N1CCOCC1	-0.8	0.675
56	-0.1	3.5	6.6	59.6	i	O=c1c2oc3ccccc3c2[nH]c(=S)n1-c1ccc(F)cc1	0.5	0.693
57	0.4	-2.0	-2.1	1.7	x	COc1ccc(CN2CC(C(=O)NCCCOC(C)C)CC2=O)cc1 (centres undefined)	-3.7	0.681
58	9.6	-3.4	x	-13.9	i	CC(C)NC(=O)C(=O)N/N=C/c1ccco1	1.0	x
59	-5.4	-2.5	0.2	-6.1	i	O=C(c1cc(-c2ccc(Br)cc2)on1)N1CCOCC1	-3.5	0.658
60	6.3	-0.6	0.9	-6.1	x	COc1ccc(CCNC(=O)CCS(=O)(=O)c2ccc(C)cc2)cc1OC	1.4	0.629
61	-0.8	0.8	x	-3.6	x	CCOc1ccc(/C(CC)=N/NC(=O)C2(C)CC2(Br)Br)cc1 (centres undefined)	3.1	x
62	36.6	2.6	7.1	2.2	x	Cc1nc(NC(=O)COc2ccccc2)sc1C(=O)Nc1cccc(Cl)c1	-6.7	0.701
63	4.9	2.4	3.6	5.0	x	CCOC(=O)C(Sc1ncn[nH]1)c1ccccc1 (centres undefined)	-1.1	0.662
64	18.4	-2.2	1.0	x	i	CC1CCC(NC(=O)COC(=O)CNC(=O)c2ccc3ccccc3c2)CC1 (centres undefined)	-0.4	0.683
65	2.6	-1.3	x	2.0	i	O=C(NCCc1c[nH]c2ccccc12)C(=O)NCC1OCCN1S(=O)(=O)c1ccccc1 (centres undefined)	2.1	x
66	13.3	2.2	3.7	-2.7	x	Cc1ccc(C(=O)c2c(NC(=O)c3ccccc3)sc(C)c2C)cc1	-2.4	0.682
67	2.6	5.2	4.0	1.4	i	COCCN(C(=O)c1csnn1)C(C(=O)NC1CCCCC1)c1ccccc1F (centres undefined)	1.7	0.655
68	-5.7	0.6	1.1	-2.7	i	CCOc1cc(NC(=S)NCC2CCCO2)c(OCC)cc1NC(=O)CC (centres undefined)	-0.7	0.669
69	-7.4	2.6	3.4	5.5	i	Cc1cc(C)c2c(c1)C1(OCCO1)C(=O)N2	1.3	0.649
70	-2.5	-1.9	x	x	i	C#CCOCCOCCOCCNc1nc(N2CCN(C(=O)Cn3cc(CCO)nn3)CC2)nc(N2CCN(C(=O)Cn3cc(CCCCN)nn3)CC2)n1	x	x
71	-0.9	-0.5	i	x	i	COc1ccc(C2CC(c3ccccc3Cl)=NN2c2ccc(S(N)(=O)=O)cc2)cc1 (centres undefined)	x	0.718
72	2.5	2.4	x	19.0	i	COc1ccc(/C=N/NS(=O)(=O)c2ccc(NC(C)=O)cc2)cc1	2.0	x
73	6.6	1.6	-46.4	-2.9	i	CCOC(=O)c1c(NC(=O)C2=COCCO2)sc2c1CCN(C(=O)OC)C2	2.9	0.719
74	10.1	3.1	0.0	0.2	i	C=CCn1cc(C(=O)NCCN(CC)CC)c(=O)c2cc(S(=O)(=O)N3CCCCCC3)ccc21	-1.5	0.708
75	6.0	-0.5	3.2	-0.5	i	O=C(CSc1nc2ccccc2c(=O)n1-c1ccc(F)cc1F)Nc1ccc(N2CCOCC2)cc1	5.3	0.694
76	2.0	1.1	-2.0	1.7	i	CC(CN1C(C)CCCC1C)OC(=O)c1ccc(F)cc1 (centres undefined)	2.8	0.674
77	0.0	-3.7	5.7	4.5	x	O=S(=O)(c1ccc(Cl)cc1)N1CCSC1c1ccco1 (centres undefined)	-0.2	0.691

Some of the compounds tested. The share of hits here may be higher or lower than overall.
